CDC25B-CDK2 inh – human CDC25B-CDK2/CyclinA binding inhibition; P30305+P24941; AID 1259370; HTRF CDC25B-CDK2/CyclinA binding, anti-His/anti-Flag; stronger effect = higher value; hit rate 0.72% among 94,000; z-score (concentration not given with the values);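 further: score is relative to mean and SD of negative controls; strong numbers were not always called active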
TAR Tat displ – HIV-1 TAR-Tat binding disruption | HIV-1 TAR RNA, Tat peptide displacement FRET; stronger effect = higher value | z-score (concentration not given with the values) | hit rate 0.6% among 100,000 | AID 1259389;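 further: score is relative to mean and SD of negative controls; some compounds called inactive have numbers as strong as hits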
Starred values were filed as active, the others as inactive; . = not tested or not shown.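 How the source made its calls: active means z-score from 3 up in half or more of its runs; inactive means the rest.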 Not a hit list; 0.87% or so of the library scored in one or more.

SMILES | CDC25B-CDK2 inh | TAR Tat displ
CCN(CC)OC(=O)c1ccc(Oc2ccc(Cl)cc2)c([N+](=O)[O-])c1 | -0.11 | .
O=C(CN1c2ccccc2NC2=C(C(=O)CCC2)C1c1ccco1)Nc1ccc2c(c1)OCO2 (stereo not drawn) | . | -7.1
Cc1ccc(C(=O)NC2CCCC2)cc1NC1=NC2CS(=O)(=O)CC2S1 (stereo not drawn) | 1.3 | 0.03
O=S(=O)(c1ccc(Cl)cc1)c1nnn2c1nc(N1CCOCC1)c1ccccc12 | 0.83 | -0.44
CC1=C(C(=O)Nc2nc3ccccc3s2)C(c2ccccc2)C2=C(CC(C)(C)CC2=O)N1 (stereo not drawn) | -0.45 | 1.5
CCn1c(=O)n(-c2ccc(F)cc2)c(=O)c2sc3ccccc3c21 | -0.97 | 0.01
CCOC(=O)C1CCN(c2c(N3CCN(c4ccccn4)CC3)c(=O)c2=O)CC1 | -1.1 | 0.87
O=C(N1CCc2ccccc21)n1ccnc1 | . | 0.34
COc1ccc(-c2ccc(NS(=O)(=O)c3ccc(C)cc3)cc2)nn1 | . | 0.64
O=C(Cc1cccs1)N(Cc1cccs1)C1(C(=O)NC2CCCCC2)CCCCC1 | -0.14 | .
Cn1c(=O)oc2cc(S(=O)(=O)N3CCCCC3)ccc21 | -1.6 | 0.14
CCc1nn2c(=O)cc(COC(=O)COc3ccc(OC)cc3)nc2s1 | . | -0.43
O=C(Nc1nnc(SCc2ccccc2)s1)c1ccc2snnc2c1 | -1.9 | -0.85
COc1ccc2nc3oc(C(=O)N4CCOCC4)cc3cc2c1 | -0.87 | .
COC(=O)c1ccc(CSc2ncnc3c2oc2ccccc23)o1 | -0.76 | .
CC(C)CNC(=O)C(=O)c1c[nH]c2ccccc12 | -1.5 | .
CC1=NN(C)C(=O)/C1=C/c1c(C)[nH]n(C)c1=O | -2.1 | .
Fc1ccc(-c2noc3ncnc(NCc4cccnc4)c23)cc1 | . | 0.12
C/C(=N\NS(=O)(=O)c1ccccc1)c1cc(-c2ccccc2)no1 | -0.98 | .
COC(=O)CCC(=O)c1oc2ccc(Br)cc2c1N | 0.31 | 1.6
CCOC(=O)c1c(NC(=O)Cn2c(-n3nc(C)cc3C)nc(C)c(CC)c2=O)sc2c1CCCC2 | . | 0.52
O=S1(=O)CC2N=C(Nc3cccc(Cl)c3)SC2C1 (stereo not drawn) | 0.05 | 2.9
Cc1nnc(NCCCN2CCOCC2)c2c1nnn2Cc1ccccc1Cl | -0.26 | 0.24
Clc1ccc(-c2nn3cnnc3s2)cc1 | -0.25 | 1.2
Cc1cccc(OCc2n[nH]c(=S)n2-c2ccccc2C)c1 | -1.6 | .
O=c1c2cccnc2[nH]c(=S)n1Cc1cccnc1 | -1.8 | .
CN1CCN(c2c3c(nc4ccccc24)C2(C)CCC3C2(C)C)CC1 (stereo not drawn) | -1.5 | .
CC1CCN(C(=O)Cn2ncc3c4ccccc4n(C)c3c2=O)CC1 | -0.75 | 0.63
CCc1nnc2sc(-c3ccc(N)cc3)nn12 | 1.2 | 1.2
Nc1ccc2nc(SCC(=O)Nc3ccc4nc(SCC(=O)NC5CC5)sc4c3)sc2c1 | 19* | .
CCCn1c2ccccc2c2cnn(CC(=O)NC(C)C)c(=O)c21 | . | 0.97
O=c1c(N2CCN(c3cccc(Cl)c3)CC2)csc2ccc(Cl)cc12 | . | -0.67
O=C(CSc1nnc(-c2ccco2)c(-c2ccco2)n1)Nc1nc2ccccc2s1 | -0.94 | 1.9
CCOCCCN(C)C1CCN(C(=O)C2CCN(c3ccc(-c4cccs4)nn3)CC2)CC1 | . | 0.05
CN(Cc1ccccc1)c1nc2c(c(=O)[nH]c(=O)n2C)n1Cc1ccc(F)cc1 | -0.62 | .
Cc1ccc(-c2coc(-c3ccc(NS(=O)(=O)c4ccc(N5CCCC5=O)cc4)cc3)n2)c(C)c1 | . | -1.4
O=C1c2cccnc2C(=O)N1Cc1ccc(S(=O)(=O)NCc2cccs2)cc1 | . | -0.63
COc1cc(-c2nc3nc[nH]n3c2Nc2ccccc2)ccc1O | -1.4 | 0.66
CC(C)=CCOc1cc2oc(=O)ccc2cc1O | . | 2.5
Cc1ccsc1-c1nc(CSCC(=O)NCc2ccc3c(c2)OCO3)c(C)o1 | -0.41 | .
O=c1c(SCc2ccc(F)cc2Cl)nccn1-c1ccc(F)cc1 | . | -2.2
O=C1CSC(c2ccccc2)N1c1cccnc1 (stereo not drawn) | -1.4 | .
Cc1oc(-c2ccc(C(C)C)cc2)nc1Cn1c(=O)cc(C)c2c(C)nn(C)c21 | . | 0.17
CCCCCSc1nnc2c(n1)OC(c1ccco1)N(C(C)=O)c1ccccc1-2 (stereo not drawn) | -1.1 | -0.9
O=C(NCc1cccnc1)Nc1cccc(NC(=O)NCc2cccnc2)c1F | -0.85 | .
COc1ccccc1N1CCN(C(=O)[C@H]2[C@@H]3C[C@@H]4[C@H]2C(=O)O[C@@H]4C3)CC1 | -3.4 | -0.23
Cc1cc(NC(=O)c2sc3nc4c(cc3c2N)CCCCCC4)no1 | 0.58 | 0.25
O=C(CSc1nnc2ccc3ccccc3n12)Nc1nccs1 | -0.73 | -0.39
Cc1c(Cl)cc(F)cc1S(N)(=O)=O | -2.8 | .
CCCCCC1(C(=O)OCC)CC(C)(c2csc(N)n2)OC1=O (stereo not drawn) | -0.81 | 1.7
CC1CCN(C(=O)NC2(C(F)(F)F)Oc3ccccc3O2)CC1 | 0.04 | .
Cc1ccc(-c2csc3c2ncn2c(=O)n(CC(N)=O)nc32)cc1 | . | 1.7
O=C1/C(=C\c2cccs2)SC(=S)N1c1ccc(S(=O)(=O)Nc2nccs2)cc1 | -1 | .
CCCC(CCC)C(=O)Nc1c(C)nc2cc(C)ccn2c1=O | . | 1.4
COc1cccc(C2C3=C(Nc4ncnn42)c2ccccc2OC3c2ccc(OC)c(OC)c2)c1 (stereo not drawn) | -2.7 | .
O=C(Nc1nnc(S(=O)(=O)N2CCCC2)s1)c1ccccc1Br | 0.77 | 2.5
O=C(Nc1ccc2c(c1)C(=O)OC2)c1cccs1 | -2.8 | .
O=C(Cn1c(=O)oc2ccccc21)NCCCN1CCCc2ccccc21 | . | 1.3
c1coc(CSCc2ccc3nonc3c2)c1 | -1.8 | .
Cc1oc2cc3oc(=O)c4ccccc4c3cc2c1C | -2.3 | .
Remaining list, next part.
SMILES | CDC25B-CDK2 inh | TAR Tat displ
O=C(c1ccco1)N1CCN(c2nc(-c3cccs3)ns2)CC1 | -0.87 | .
O=C(CN1C(=O)C2CCCCN2c2ccc(C(=O)N3CCCC3)cc21)N1CCOCC1 (stereo not drawn) | . | 0.02
C=C(C)Cn1c(C2CC(=O)N(Cc3ccccc3)C2)nc2ccccc21 (stereo not drawn) | 1 | 1.9
CN(C)CCNC(=O)C1CCCN(S(=O)(=O)N2CCCCC2)C1 (stereo not drawn) | . | -0.64
Cc1ccc(C2CC(=O)c3cnc(N4CCN(c5ccccn5)CC4)nc3C2)cc1 (stereo not drawn) | -2.2 | 17
CCOc1ccc(N2C(=O)N(C)C3CS(=O)(=O)CC32)cc1 (stereo not drawn) | . | -0.09
CC1CCN(C(=O)CN2C(=O)c3cccc4cccc2c34)CC1 | -0.55 | 1.8
N/C(=N\OC(=O)c1cccc(C(F)(F)F)c1)C1CSCCS1 (stereo not drawn) | -2.4 | .
O=C(CSc1ssc(=S)c1-c1ccccc1)Nc1ccc(F)c(F)c1F | -1.6 | .
CCCn1c(NCc2ccc(C)o2)nc2ccccc21 | -0.53 | 1.7
CCCCN(CCCC)CCn1cnc2c([nH]c3ccc(F)cc32)c1=O | -0.15 | 6.8
COc1ccc(N/C(=C\C=C(C#N)C#N)c2ccc(Cl)cc2)cc1 | -2.2 | .
COC(=O)CCCC[C@H]1SC[C@H]2NC(=O)N[C@]21O | 1 | 2
COc1ccc(NS(=O)(=O)c2cc(-c3onc(C)c3C)ccc2OC)c(OC)c1 | . | 1.1
CN(C(=O)c1nn(C)c2c1COc1ccccc1-2)c1ccccc1Cl | -1.1 | 0.56
COCCNC(=O)CCCN1C(=O)CCn2nc(C)cc21 | . | -0.54
Cc1ccc(C=C2C(=O)OC(C)(C)OC2=O)o1 | -1.2 | .
Clc1ccc(-n2cc(-c3ccccc3)c3c(NCc4cccs4)ncnc32)cc1 | . | 0.72
Fc1cccc(CN2CCN(C3CCN(Cc4ccccc4)CC3)CC2)c1 | -1 | .
O=S(=O)(CCN(C1CC1)S(=O)(=O)c1ccccc1)N1CCNCC1 | . | 1.4
O=C(NCCN1CCCC1)C1=Cc2sc3c(c2CS1)CCCC3 | . | 2.1
S=C(NCc1ccco1)N/N=C1\CSCc2ccccc21 | -1.7 | .
Cc1[nH]c(=O)[nH]c(=O)c1S(=O)(=O)N1CCN(CCOc2ccc(Cl)cc2)CC1 | . | 0.45
O=C(O)c1cc(Br)cc(C(=O)O)c1Cl | 1.1 | 2.2
O=C(Cn1c(=O)c2cccn2c2cccnc21)NC1CCCCC1 | . | 0.8
CSc1cccc(NC(=O)c2cnn(-c3ccccc3)c2-n2cccc2)c1 | -0.85 | 1.8
O=c1[nH]c2c(=O)[nH]c(=S)[nH]c2nc1/C=C(\O)c1ccccc1 | -1.9 | .
CCC(C(=O)N1CCc2ccccc2C1)n1nc(C)n2c(cc3sccc32)c1=O (stereo not drawn) | -1.2 | -0.15
O=C(CCCn1c(=O)c2cccn2c2ccc(F)cc21)NCc1ccco1 | . | 1.9
CCOC(=O)N1CCN(CC(O)COCc2ccc3c(c2)OCO3)CC1 (stereo not drawn) | 0.19 | 0.51
Cc1ccccc1CSc1nc2c(c(=O)[nH]1)C(c1cccc(O)c1)CC(=O)N2 (stereo not drawn) | -1.9 | 2.3
Cn1c(=O)[nH]c(=O)c2[nH]cnc21 | . | 3.4
CC(C)C(=O)Nc1nnc(SCc2cc(=O)n3ccsc3n2)s1 | . | -1.8
COc1ccc(CN2CCCN(Cc3ccc(OC)cc3)C2c2cccc(C)n2)cc1 | -1.4 | .
O=C(CCc1nnc2ccc(N3CCCC3)nn12)Nc1ccc(F)cc1 | . | -0.37
COc1ccc(C(Nc2cccc(C)n2)c2ccc3ccc(C)nc3c2O)cc1C (stereo not drawn) | -0.53 | .
CSc1nc2n(n1)C(c1ccccc1)C1=C(CC(C)(C)CC1=O)N2 (stereo not drawn) | -1.5 | -0.92
CN(CC1CCCO1)C1CCN(S(=O)(=O)c2ccc(-c3ccc(=O)[nH]n3)s2)CC1 (stereo not drawn) | . | 1.1
O=C1c2ccccc2C(Nc2ccccc2F)N1c1ccc(Cl)cc1 (stereo not drawn) | -1.2 | 1.1
COC(=O)c1c(-c2cc(C)on2)n[nH]c1C | -1.8 | .
CN1CCN(CC(O)COc2ccc(C3CCCCC3)cc2)CC1 (stereo not drawn) | -0.52 | .
N#C/C(=C\c1ccc(Cl)cc1Cl)C(=O)NC(=O)Oc1ccc(F)cc1 | -2.7 | .
N[C@@H](Cc1ccccc1)C(=O)N[C@@H](Cc1ccc(O)cc1)C(=O)O | . | 0.06
COc1ccccc1-c1nnc(Nc2nc3cc4c(cc3s2)OCO4)o1 | 0.61 | .
CN(C1CCCCC1)S(=O)(=O)N1CCCC(C(=O)N2CCN(c3ccc(Cl)cc3)CC2)C1 (stereo not drawn) | . | 2.9
CCN1C(=O)COc2ccccc2C1=O | -2.4 | 0.23
COc1ccc2c(c1)CCc1c-2n[nH]c1C(=O)N1CCN(c2c(C)n(C)c(=O)n(C)c2=O)CC1 | . | 1.4
CCOc1ccc2ncc(S(=O)(=O)c3ccc(OC)cc3)c(N3CCCC3)c2c1 | 2.2 | 0.63
CCOCCc1nn2c(=O)cc(COC(=O)CSc3ccc(C)cc3)nc2s1 | . | -1.6
O=S(=O)(c1cc(Br)c(Cl)s1)N1CCOCC1 | -0.66 | .
CCN(C(=O)Cn1cnc(S(=O)(=O)N2CCCC2)c1)c1ccccc1 | . | 1.4
Cc1cc(NC(=O)C2CC3CCCN3C23C(=O)N(C)c2ccccc23)ccc1Br (stereo not drawn) | . | 0.51
CCCCCOC(=O)C1=C(C)NC2=C(C(=O)CC(C)(C)C2)C1c1ccccc1OCC (stereo not drawn) | -1.7 | 1.5
Cc1ccc(-n2ncc3c(N4CCOCC4)ncnc32)cc1Cl | . | 0.81
Cc1c(CNC(=O)c2cnn3c(C(F)(F)F)cc(-c4ccc(Br)cc4)nc23)cnn1C | -0.88 | 1.4

From PubChem BioAssay
